Bioassay records: PubChem BioAssay, National Center for Advancing Translational Sciences (NCATS)
NPR1 antag: human Npr1 receptor antagonism; P16066; HEK293 hNpr1 GloSensor cGMP, ANP-stimulated luminescence; Potency, µM (doses to about 46.3 µM), without a hit: at the top dose activity change, negative = inhibition, most hits filed as inhibitors; hit rate 1.6% among 76,000; active = well fitted inhibition curve with a large enough effect; inconclusive = small, poorly fitted or top-dose-only effect; inactive = no such curve, though single readings can be large or run the other way;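 further: nearly all actives have a fitted effect of over 60% in size; nearly all hits also lower the signal before the agonist is added; a reference antagonist and vehicle were the controls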
Target sequence (P16066 whole entry, looked up): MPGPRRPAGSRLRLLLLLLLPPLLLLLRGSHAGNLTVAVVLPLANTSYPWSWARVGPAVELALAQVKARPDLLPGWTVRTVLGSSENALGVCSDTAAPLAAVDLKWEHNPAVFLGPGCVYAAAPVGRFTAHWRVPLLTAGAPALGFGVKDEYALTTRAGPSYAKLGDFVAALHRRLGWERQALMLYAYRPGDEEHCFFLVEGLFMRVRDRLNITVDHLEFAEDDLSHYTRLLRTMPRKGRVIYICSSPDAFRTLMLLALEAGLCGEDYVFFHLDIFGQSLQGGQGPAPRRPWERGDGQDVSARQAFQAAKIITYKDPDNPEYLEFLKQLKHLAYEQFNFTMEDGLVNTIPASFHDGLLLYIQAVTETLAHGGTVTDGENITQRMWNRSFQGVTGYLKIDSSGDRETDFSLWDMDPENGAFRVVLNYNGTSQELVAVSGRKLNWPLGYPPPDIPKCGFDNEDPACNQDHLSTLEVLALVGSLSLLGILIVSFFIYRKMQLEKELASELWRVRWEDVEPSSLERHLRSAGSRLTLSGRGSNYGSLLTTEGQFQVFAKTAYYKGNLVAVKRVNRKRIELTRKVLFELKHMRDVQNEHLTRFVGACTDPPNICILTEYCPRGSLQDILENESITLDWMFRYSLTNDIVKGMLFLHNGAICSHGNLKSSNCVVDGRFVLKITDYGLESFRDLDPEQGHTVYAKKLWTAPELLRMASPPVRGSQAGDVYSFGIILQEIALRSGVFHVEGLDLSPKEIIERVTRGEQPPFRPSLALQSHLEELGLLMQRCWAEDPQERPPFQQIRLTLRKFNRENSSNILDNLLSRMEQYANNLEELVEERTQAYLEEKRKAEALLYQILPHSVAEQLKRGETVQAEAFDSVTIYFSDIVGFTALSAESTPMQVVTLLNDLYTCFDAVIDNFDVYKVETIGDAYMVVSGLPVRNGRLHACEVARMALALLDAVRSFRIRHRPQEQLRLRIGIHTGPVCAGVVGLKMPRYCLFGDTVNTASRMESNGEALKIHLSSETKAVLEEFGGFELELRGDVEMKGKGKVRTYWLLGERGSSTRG
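HEK293 cells stably expressing human Npr1 and cGMP GloSensor pGS-40F, loaded 2 h with 2% GloSensor reagent, given compound 30 min at room temperature. Luminescence read before and 20 min after 0.1 nM hNppA.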
Starred values were filed as active, the others as inactive; ? = inconclusive; [ ] = another dose, or the depositor's remark. On the % scale 0 is the no-effect control and ±100 the full control effect; potency means the concentration at half of the fitted maximal effect.

NPR1 antag	mol
-22%	CCc1ncc(C(=O)N2CCN(c3ccc(Cl)c(Cl)c3)CC2)cn1
5%[70.6 µM]	Cc1noc2c(-c3cnn(C)c3)cc(-c3cccnc3)nc12
-6%[70.6 µM]	COCCCNC(=O)c1nc2nc(-c3ccccc3)c(Cl)cc2n1C
-7%	Cc1cccc(CN2CCc3nnc([C@@H]4C[C@@H](O)CN4C)n3CC2)c1
-4%	CCCN(CC1CCOC1)C(=O)Nc1ccccc1C(F)(F)F (centres undefined)
0%[70.6 µM]	CCCOc1cc(C)c2c(c1C)C[C@H](C(C)C(=O)N1CCN(CCO)CC1)CC2 (some centres undefined)
-6%	Cc1cc(C(=O)N2CCCCCC2c2nnc(-c3ccccc3)o2)nn1C (centres undefined)
0%[70.6 µM]	C=CCNC(=O)N1CC[C@H]2CC(=O)N(c3ccccc3)CC[C@H]2C1
-3%	CC(=O)N[C@@H]1CN(C(=O)c2[nH]c3c(C)ccc(C)c3c2C)C[C@H]1C(C)C
-6%	CN(CCNC(=O)C1CCCN(c2cnn(Cc3ccccc3)c(=O)c2)C1)C1CCCCC1 (centres undefined)

In the list so far, 3 contain a halogen.
NPR1 antag	mol
-22%	CCc1ncc(C(=O)N2CCN(c3ccc(Cl)c(Cl)c3)CC2)cn1
-6%[70.6 µM]	COCCCNC(=O)c1nc2nc(-c3ccccc3)c(Cl)cc2n1C
-4%	CCCN(CC1CCOC1)C(=O)Nc1ccccc1C(F)(F)F (centres undefined)

Next section:
NPR1 antag	mol
-4%	CCOc1cc(=O)n2c(c1C(=O)Nc1ccc(SC)cc1)CCCC2
-1%	O=C1NCCCCCCN(Cc2ccncc2)[C@@H]2CN(C(=O)NCCc3ccccc3)CC[C@H]12
-2%[70.6 µM]	COC(=O)CO[C@@H]1CO[C@H]2[C@@H]1OC[C@@H]2n1cc(-c2ccccn2)nn1
-27%[70.6 µM]	O=C1COc2ccc(-c3ccccc3)nc2CN1CCOc1ccccc1
-14%	COc1cc(NC(=O)c2ccc(-c3ncn[nH]3)cc2)ccc1NC(=O)C(C)(C)C
-7%	O=C1Nc2ccc(-c3ccccc3F)cc2C(=O)N2CCN(C(=O)COc3ccccc3)C[C@H]12
5%	COCCN1CC(CO)C2(CCN(C3CCC3)CC2)C1 (centres undefined)
1%	CCC(CC)NC(=O)CCC1CCN(C(=O)c2ccccc2F)CC1
-13%	O=C(c1ccc(F)cc1)N1CCC2(CC1)OCC(C(=O)N1CCOCC1)N2C(=O)c1cccc(F)c1 (centres undefined)
2%	CCCn1c(C)cnc1C1CCN(C(=O)NC)C1 (centres undefined)

A second format for part of the listing above.
Molecule: O=C1COc2ccc(-c3ccccc3)nc2CN1CCOc1ccccc1
  NPR1 antag: -27%[70.6 µM]

Molecule: COc1cc(NC(=O)c2ccc(-c3ncn[nH]3)cc2)ccc1NC(=O)C(C)(C)C
  NPR1 antag: -14%

Molecule: O=C1Nc2ccc(-c3ccccc3F)cc2C(=O)N2CCN(C(=O)COc3ccccc3)C[C@H]12
  NPR1 antag: -7%

Molecule: COCCN1CC(CO)C2(CCN(C3CCC3)CC2)C1 (centres undefined)
  NPR1 antag: 5%

Further structures follow:
NPR1 antag	mol
?	CCOc1cccc(-c2nc(C(=O)NCc3ccccc3)cs2)c1
7%	Cc1ccc(CNC(=O)N2CCC(N3CC4CC(C3)[C@H]3CCCC(=O)N3C4)CC2)cc1 (some centres undefined)
-1%	O=C(NCc1ccc(F)cc1)N1CCC(c2noc(-c3ccccn3)n2)C1 (centres undefined)
2%	CCNC(=O)N1CCC(OC2CCN(S(C)(=O)=O)CC2)CC1
4%	Cc1c(CN2CC(=O)N(CC(C)C)CC(OCc3ccccc3F)C2)c(=O)n(-c2ccccc2)n1C (centres undefined)
-12%	Cc1c([C@@H]2C[C@H](NC(=O)c3ccccc3)C[C@H](C(C)(C)C)O2)cnn1C
-3%	CS(=O)(=O)N(C[C@H]1O[C@@H](CC(=O)NC2CC2)[C@H](O)[C@@H]1O)C[C@H]1O[C@@H](CC(=O)NC2CC2)[C@H](O)[C@@H]1O
-2%	COc1ccc(Cc2nc3nccc(-c4ccco4)n3n2)cc1
-2%	Cn1ncc(N2CCOC(CCNc3cnc4ccccc4n3)C2)cc1=O (centres undefined)
1%	CC1(CCCCN2CCOCC2)COc2ccc(C(=O)NCc3ccc(F)cc3)cc2N1 (centres undefined)
0%	COc1ccc(OC)c([C@@H]2C[C@H](NC(C)=O)C[C@H](Cc3ccccc3)O2)c1
-1%	CN1CCCC1CCNc1nccc(-c2cnn(-c3ccccc3F)c2)n1 (centres undefined)
?	COCCN1CCNc2cc(-c3ccc(Oc4ccccc4)cc3)ncc2C1
3%	CCOC(=O)C1(Cc2ccccc2F)CCCN(C(=O)c2coc3c2C(=O)CCC3)C1 (centres undefined)
4%	CC(C)n1nc(C2CCOC2)nc1-c1n[nH]c2ccccc12 (centres undefined)
0%	O=C(NC1CCCCC1)N1CCCC(CN2CCCC2)CC1 (centres undefined)
-24%	O=C(Cc1ccc(F)cc1)N1CCC(n2cc(-c3nc(-c4ccccc4)no3)nn2)C1 (centres undefined)
-2%	CCC1c2nccn2CCCN1C(=O)c1ccc(Cn2cncn2)o1 (centres undefined)
-18%	Cc1nn(-c2ccccc2)c(Oc2ccccc2F)c1CCC(=O)NCC1CC1
0%	Cc1ccc(C(=O)N2CCc3[nH]nc(C(=O)NCCCc4ccccc4)c3C2)cc1

The closing six compounds of the section before lead into the next:
NPR1 antag	mol
4%	CC(C)n1nc(C2CCOC2)nc1-c1n[nH]c2ccccc12 (centres undefined)
0%	O=C(NC1CCCCC1)N1CCCC(CN2CCCC2)CC1 (centres undefined)
-24%	O=C(Cc1ccc(F)cc1)N1CCC(n2cc(-c3nc(-c4ccccc4)no3)nn2)C1 (centres undefined)
-2%	CCC1c2nccn2CCCN1C(=O)c1ccc(Cn2cncn2)o1 (centres undefined)
-18%	Cc1nn(-c2ccccc2)c(Oc2ccccc2F)c1CCC(=O)NCC1CC1
0%	Cc1ccc(C(=O)N2CCc3[nH]nc(C(=O)NCCCc4ccccc4)c3C2)cc1
-18%	Cc1ccc(C2Cn3nnc(-c4nc(-c5ccccc5)no4)c3CO2)c(C)c1 (centres undefined)
?	O=C(NCC1CC1)c1nc2c(o1)CCN(Cc1cccc(F)c1)CC2
-2%	Cc1sc2ccn(C)c(=O)c2c1C(=O)NCc1ccc(F)cc1Cl
2%	CC(C)n1cnnc1CN1CCN(Cc2ccccn2)[C@@H]2CS(=O)(=O)C[C@@H]21
2%	Cc1oc(-c2cccc(Oc3ccccc3)c2)nc1CN1CCOC(CCN)C1 (centres undefined)
?	Cc1cc(C)c(S(=O)(=O)N2CC(c3nc(Cc4ccccc4)no3)C2)c(C)c1
-2%	CC(C)CCN1CC2(CCN(C(=O)CCC3NC(=O)NC3=O)CC2)OC1=O (centres undefined)
5%	Cc1ccc(C2Cn3nnc(C(=O)NCC4CC4)c3CO2)cc1 (centres undefined)
-4%[70.6 µM]	N#Cc1ccc(CN2CCC3(CC2)COCCN3C(=O)c2ccccc2)cc1
-4%	CCS(=O)(=O)N(C1CC1)C1CCOC2(CCN(C(=O)c3cccc(OC)c3)CC2)C1 (centres undefined)
-14%	CNC(=O)[C@@H]1CN(C(=O)c2ccc(OC)cc2C)C[C@H]1COC
0%	O=C(Cn1ccn2nc(-c3ccccc3)c(CO)c2c1=O)NCCc1ccccc1
-8%	CC(C)n1cc2cc(C(=O)NCc3ccc(N4CCOCC4)cc3)sc2c1
0%	CCOc1ccccc1NC(=O)CN1C(=O)C(c2ccccc2)=NC12CCCC2
11µM*	COc1ccc(CNC(=O)c2ccc(Cn3ccn4nc5c(c4c3=O)CCCC5)cc2)cc1OC
0%	CCCC(=O)N(C)CC1CCOCC1
-2%	CCOc1ccc(C(=O)N2CCC3(CC2)NC(=O)N(c2ccc(F)cc2)N3)cc1
-16%	O=C(c1ccc(C(F)(F)F)cc1)N1CCC2(CC1)Cc1ccccc1NC2=O
-7%	O=C1CCN(Cc2c[nH]c3ccccc23)CCCC(C(=O)NCc2ccccc2)CCN1 (centres undefined)
11µM*	O=C(c1ccc(F)c(F)c1)N1CCCC(n2cc(-c3nc(-c4ccccc4)no3)nn2)C1 (centres undefined)
-16%	COc1ccc(OC)c(-c2cc(Cl)c3c(c2)CC(CNC(=O)C(C)(C)C)O3)c1 (centres undefined)
0%	COc1ccc(-c2[nH]ncc2CNc2cc(C3CC(O)C3)nc(C)n2)cc1 (centres undefined)
-2%	O=c1[nH]c(N2CCOCC2)nc2c1CCN(Cc1cc(Br)ccc1F)CC2
-6%	NC(=O)[C@H](Cc1cccs1)NC(=O)C1=C[C@@H](NC(=O)NC2CCCCC2)[C@@H](O)[C@H](O)C1
0%	Cc1cccc(CC(=O)NCC2Cn3cccc3C(=O)N2C)c1 (centres undefined)
?	CC(C)c1noc(-c2cn(C3CCN(C(=O)c4cc5ccccc5[nH]4)C3)nn2)n1 (centres undefined)
-25%	COCC[C@]1(O)CCN(C(=O)Cc2coc3cc(C)c(Cl)cc23)C[C@H]1C
0%[70.6 µM]	Cn1cc(-c2cnc3[nH]cc(CC(=O)NCc4ccc5c(c4)OCO5)c3c2)cn1
-10%	COc1ccc(C(=O)N2CC(C(=O)NCCc3ccncc3)C3(CCOCC3)C2)cc1 (centres undefined)
6%[70.6 µM]	CN(C(=O)Cc1cccc(Cl)c1)C1CCCc2ccccc21 (centres undefined)
0%	O=C(c1c(F)ccc(F)c1F)N1CCCC(c2nc(-c3ccncc3)ncc2-c2ccccc2)C1 (centres undefined)
4%[70.6 µM]	COc1ccc(-c2ccc3ncn(Cc4ccccn4)c(=O)c3n2)cc1F
-2%[70.6 µM]	COc1ccc(-c2cc(-c3ccc4c(c3)C(=O)NC4)cn3cncc23)cc1
-12%	COc1cccc(CN2CCC(Oc3ccc(C(=O)NC4CCCC4)cc3Cl)CC2)c1
-13%	Cc1ccc(CN2CCNC(=O)C2CC(=O)N(CC(C)C)CC(C)C)cc1 (centres undefined)
5%	Cc1cccc(C(=O)N2CCOC(CCCc3ccccc3)C2)n1 (centres undefined)
-13%	CC1CCN(C(=O)CC(c2ccc(Cl)cc2)c2cn(C)c3ccccc23)CC1 (centres undefined)
?	Cc1ccc(C(=O)N2CCn3c(nn(-c4ccncc4)c3=O)C2)cc1
-19%	N#Cc1ccccc1CN1CCCCCCNC(=O)[C@@H]2C[C@@H](C(=O)N3CCc4ccccc4C3)C[C@@H]21
5%	CCN(CC)Cc1ccc2c(c1)CN(C(=O)Nc1cccc(F)c1)CCO2
-8%	Cc1cc(C(=O)N2C[C@@H](CO)[C@H](c3nc(C4CC4)no3)C2)ccn1
3%	CCc1csc(CNC(=O)c2ccc(N(C)Cc3cnn(C)c3)nc2)n1
-18%	Cc1ccc(C(=O)N2CCN(c3cc(-c4ccccc4)[nH]n3)CC2)cc1F
-12%	CCCn1cc(C(=O)N2CCN(S(=O)(=O)N3CCCC3)CC2)c(C)n1
8%	CN(C)[C@@H]1CN(Cc2ccccn2)CC[C@@H]1CO
2%	O=C1c2ccccc2OCC2(CCN([S+](=O)([O-])c3ccccc3)C2)N1[S+](=O)([O-])c1ccccc1 (centres undefined)
-22%	COc1ccc(-c2onc(C)c2C(=O)N(C)Cc2cc(OC)c(OC)c(OC)c2)cc1
-2%	CC(=O)c1cccc(NC(=O)Cn2c(-c3ccccc3)nc(C)cc2=O)c1
6%	CN(C)C(=O)NCC(=O)N1CCc2[nH]nc(-c3ccc(F)c(F)c3)c2C1
7%	CCn1ccnc1CN(C)C(=O)c1cc(-c2cnc(C)nc2)nc2cc(F)ccc12

(cont.)
NPR1 antag	mol
2%	COc1cccc(C(=O)NCC2CCCN(Cc3ccc(Cl)cc3)C2)c1OC (centres undefined)
4%	CC(C)N1CCN(C(=O)CCC2CCN(S(=O)(=O)c3ccccc3F)CC2)CC1
2%	CCn1cc(C(=O)N[C@@H]2COCC[C@@H]2OCC2CC2)c(=O)c2ccc(C)nc21
10%[70.6 µM]	Clc1ccc2oc([C@H]3CCN(Cc4ccccc4)C3)nc2c1
-23%	CCc1csc(CNc2cc(C3CC(O)C3)nc(N)n2)n1 (centres undefined)
5%	Cn1cccc1C(=O)N1CCCC(c2nn[nH]n2)C1 (centres undefined)
1%[70.6 µM]	CC(C)CNC1(Cc2cc(CN(C)Cc3ccccc3)on2)COC1
?	S=C(NC1CCCCC1)N[C@H]1CO[C@H]2[C@@H]1OC[C@@H]2n1nnnc1Oc1cccc(N2CCOCC2)c1
1%[70.6 µM]	O=c1cc(N2CCOCC2)oc2c(N3CCN(c4ccccn4)CC3)nccc12
2%	CNC(=O)[C@@H]1CN(C(=O)c2ccc(OC)nc2OC)C[C@H]1c1n[nH]c(C)n1
2%	O=C1NC(C(=O)NC2CC2)Cn2cccc21 (centres undefined)
?	CN(C)c1ccc(CN2CCn3c(nn(-c4ccc(F)cc4F)c3=O)C2)cc1
-2%[70.6 µM]	Cn1cc(-c2cnc(NC(=O)c3c[nH]c4ccccc34)c3c2CCO3)cn1
-12%	CCCS(=O)(=O)N1C[C@@H](COC)[C@H](C(N)=O)C1
0%[70.6 µM]	O=C1NC2(CCCN(C(=O)c3ccc(F)cc3)C2)COc2ccccc21 (centres undefined)
4%	CCN(Cc1noc(C)n1)C(=O)COc1ccc(Cl)cc1Cl
-2%	COc1ccc(C(C)NC(=O)c2c(C)sc3ccn(C)c(=O)c23)cc1 (centres undefined)
-1%[70.6 µM]	O=C(c1nc2c(o1)CCN(Cc1ccc3c(c1)CCO3)CC2)N1CCOCC1

Only part of the results is shown; rates above refer to the full screens.
